# Bioassay records deposited in PubChem BioAssay by several laboratories.
# Ecoli growth = E. coli growth inhibition; 330,000 tested, 0.21% active; OD600 absorbance (no concentration beside the values); Escherichia coli growth, OD600, 23 h; active compounds read low;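 active = OD600 absorbance below the run mean of sample wells minus 3.6 SD, in any replicate, cut at about 0.56 in these data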;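 note: stock transfer was 300 nL into about 60 µL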
# FGF22 binding = shifts melting point of recombinant human FGF22; recombinant FGF22 thermal shift, SYPRO orange fluorescence; percent of sucrose octasulfate shift, DMSO zero; 340,000 tested, 1.5% active; AID 651658; calls only at 9.99 µM;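 active = melting point raised past a set limit in the mean and every replicate; three in four hits are not shown here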
# Target sequence (Q9HCT0 whole entry, looked up): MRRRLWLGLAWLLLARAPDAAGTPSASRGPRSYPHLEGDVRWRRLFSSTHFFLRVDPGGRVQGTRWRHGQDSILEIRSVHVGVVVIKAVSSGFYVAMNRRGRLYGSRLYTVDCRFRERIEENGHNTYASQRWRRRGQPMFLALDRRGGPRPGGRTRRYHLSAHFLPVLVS
# UCH37 DUB inh = human UCH37 deubiquitinating enzyme inhibition; Q9Y5K5; purified proteasome/UCH37, Ub-AMC cleavage fluorescence; inhibition, % (no concentration beside the values); 330,000 tested, 0.33% active; AID 588478;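 active = mean of two replicates above 20%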;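 note: 0% = compound-free wells with enzyme and 100% = wells lacking proteasome; stock transfer was 100 nL into about 20 µL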
# Target sequence (Q9Y5K5 whole entry, looked up): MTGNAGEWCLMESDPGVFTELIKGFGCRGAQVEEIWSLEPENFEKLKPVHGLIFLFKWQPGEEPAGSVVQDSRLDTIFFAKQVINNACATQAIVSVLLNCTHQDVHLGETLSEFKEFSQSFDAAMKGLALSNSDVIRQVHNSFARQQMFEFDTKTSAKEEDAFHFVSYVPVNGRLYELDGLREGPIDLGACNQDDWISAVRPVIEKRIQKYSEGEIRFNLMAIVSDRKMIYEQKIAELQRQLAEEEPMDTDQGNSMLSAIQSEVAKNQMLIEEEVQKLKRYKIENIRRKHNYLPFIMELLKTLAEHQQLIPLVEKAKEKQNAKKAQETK
#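 Schedule: 30 min plus 25 min, room temperature / Material: human UCH37 within purified proteasomes / Technique: AMC fluorescence intensity at 355/460 nm / Buffer or medium: pH 7.4 Tris-HCl (50 mM) with ovalbumin, ATP-MgCl2, DTT / Controls: wells without proteasome as full block, compound-free enzyme plus substrate as uninhibited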
# HNF4A DNA FP = change in binding of human HNF4 alpha to DNA | P41235 | HNF4a-FITC DNA binding, fluorescence polarization, 1 h | activity change, % at 10 µM | 360,000 tested, 0.3% active | AID 1224865; in the data active = activity change above about 30%, passing the limit was not always enough;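 note: controls were the assay level and a saturating level of protein; the project sought stronger binding though the title names inhibitors; some compounds called inactive have numbers as strong as hits; positive values seem to mean higher polarization but the record does not say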
# Beta2AR agonist = agonists of human beta-2 adrenergic receptor inducing internalization. Am2.2-beta2AR cells, FAP receptor internalization, flow cytometry; reference of the scale not given here. response, % (concentration not given with the values). 340,000 tested, 0.43% active;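 active = response above a set limit, near 3 SD of response in nonfluorescent compounds, cut at about 42% in these data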;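 note: stock transfer was 100 nL into about 11 µL; a reference agonist was the positive control; negative values mostly stem from fluorescent compounds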
# rRNA inh HTS = selective bacterial rRNA inhibition in E. coli; E. coli WT GFP vs humanized-ribosome RFP mutants, fluorescence, 24 h; active compounds read low; DMSO median 0, no signal -100; GFP signal change (wild-type ribosome), % (concentration not given with the values); 350,000 tested, 1.6% active; AID 720706;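 active = significant combined selectivity score with lowered wild-type GFP, culture density cut under 30%, mutant RFP and density less affected; inactive = any of these conditions unmet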; note: one replicate is shown; some compounds called inactive have numbers as strong as hits
# ALR inh = inhibitors of human sulfhydryl oxidase ALR | 290,000 tested, 3.8% active | P55789 | purified ALR, DTT oxidation, H2O2 HRP-luminol luminescence | inhibition, % (no concentration beside the values);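 active = mean and each replicate at 75% or more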;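 note: stock transfer was 7.5 nL into about 7.5 µL; 0% = neutral wells and 100% = wells with inactivated enzyme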
# Target sequence (P55789 whole entry, looked up): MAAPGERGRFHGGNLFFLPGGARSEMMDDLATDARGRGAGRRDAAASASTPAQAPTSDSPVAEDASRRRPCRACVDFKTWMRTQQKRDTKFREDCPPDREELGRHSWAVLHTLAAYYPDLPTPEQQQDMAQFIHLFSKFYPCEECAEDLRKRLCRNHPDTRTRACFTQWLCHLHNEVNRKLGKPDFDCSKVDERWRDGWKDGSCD
# rRNA inh HTS OD600 = also measured in rRNA inh HTS; calls as there; OD600 change, %; measured here: OD600 growth;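 optical density of the mix in the first replicate; 0 = DMSO median and -100 = no signal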
# rRNA inh HTS RFP = second read-out of rRNA inh HTS, no call of its own (marks repeat the call); RFP signal change, %; measured here: RFP humanized mutant strains;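 first replicate; 0 = DMSO median and -100 = no signal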
# Numbers without * were called inactive; i = inactive; nt = not tested or not shown; & = joins results of further samples. Some of the compounds tested; count on the stated rates, not on these rows.
SMILES,Ecoli growth,FGF22 binding,UCH37 DUB inh,HNF4A DNA FP,Beta2AR agonist,rRNA inh HTS,rRNA inh HTS OD600,rRNA inh HTS RFP,ALR inh
COc1ccc(CN(C(=O)c2cccc(OC)c2)C2CCS(=O)(=O)C2)cc1 (stereo not drawn),0.64,i,6.4,-3.1,0,-1,2,-0.2,-7
C[C@@H]1CN([C@H](C)CO)S(=O)(=O)c2ccc(Br)cc2O[C@H]1CN(C)C(=O)Nc1ccccc1,nt,i,nt,1.9,nt,-5&-7,-10&-3,1.6&-0.7,nt
COc1ccc(Cl)cc1NC(=O)COC(=O)C1CCCCC1,0.69,i,-1.9,-5.0,-1,-1,-4,-0.7,nt
CN1/C(=C\C(=S)NC(=O)c2ccccc2Cl)C(C)(C)c2ccccc21,0.65,i,5.2,68*,-31,-41,-68,37,6
CC(C)Cc1cc(CNC(=O)C2CCC(=O)N(Cc3cccc(C(F)(F)F)c3)C2)on1 (stereo not drawn),0.7,i,4.4,-0.5,-14,0,-6,2.1,-12
COc1ccccc1C(=O)NCCSCc1ccccc1Cl,0.65,i,1.8,4.1,-10,-26,-40,-5.5,10
O=[N+]([O-])c1ccc2nnn(O)c2c1,0.65,nt,8.6,-2.1,-3,nt,nt,nt,-22
CCOc1ccc(OC(=O)c2cccnc2)cc1,0.66,nt,4.8,8.7,1,nt,nt,nt,10
COc1ccc(N2C(=O)C(Cl)=C(N3CCCC3)C2=O)cc1,0.65,nt,2.6,1.6,-7,nt,nt,nt,1
O=C(NCCSCc1ccco1)c1ccc(CN2CCOCC2)cc1,0.65,nt,4.4,0.5,-4,nt,nt,nt,-8
Cc1ccc(Cn2c(/C=C/c3ccco3)nc3ccccc32)cc1,0.72,nt,-48,29,7,nt,nt,nt,nt
Cc1cc(C)cc(NC(=S)/C(=C(\[O-])c2ccc(Cl)cc2Cl)[n+]2ccccc2)c1,0.69,i,5.3,1.6,-7,0,-5,-0.4,1
CC(NC(=O)Nc1ccccc1)C(c1cccs1)N1CCN(c2ccccc2)CC1 (stereo not drawn),0.73,i,5.2,-0.9,-2,2,13,-3.2,2
COc1ccc(N2CCN(Cc3cc(OC)c(O)c([N+](=O)[O-])c3)CC2)cc1,0.69,nt,6.5,0.3,-2,nt,nt,nt,26
O=C(COC(=O)[C@H](Cc1ccccc1)N1C(=O)c2ccccc2C1=O)Nc1ccc2c(c1)OCO2,0.79,nt,5.0,-1.1,-4,nt,nt,nt,nt
CSc1nc(-c2ccccc2)nn1C(=O)c1ccco1,0.73,nt,2.1,0.1,-6,nt,nt,nt,10
COc1cccc(S(=O)(=O)Nc2ccc3c(c2)OCCO3)c1,0.62,i,3.9,-0.4,1,-5,-8,0.0,3
CCOc1ccc(S(=O)(=O)N2CCCC(C(=O)NCC3CCCO3)C2)cc1Cl (stereo not drawn),0.62,i,1.2,1.5,21,-4,0,-0.7,-4
O=c1[nH]cncc1OCc1ccccc1,nt,i,nt,3.7,-9,10,16,-2.0,nt
CCCC(NCC(O)COc1ccc(-c2ccccc2)cc1)c1ccccc1 (stereo not drawn),0.63,i,0.4,2.0,21,-2,-4,6.5,-8
CCOc1cc(C)nc(Oc2ccc(=O)[nH]n2)n1,0.71,nt,0.9,0.0,7,nt,nt,nt,nt
Cc1cc(Nc2cccc(C)c2C)n2nc(C)nc2n1,0.7,i,4.5,3.0,2,-3,-4,1.1,-8
O=C(COC(=O)c1cc([N+](=O)[O-])ccc1N1CCOCC1)c1ccc(F)cc1,0.65,i,4.7,1.5,-1,12,5,4.0,nt
CC(C)NC(=O)c1cc2ccccc2o1,0.68,nt,-0.5,2.2,-4,nt,nt,nt,4
O=c1c2ccccc2nc(SCc2nnc(-c3ccccc3Br)o2)n1Cc1ccco1,0.7,nt,5.3,0.5,0,nt,nt,nt,2
COc1ccc(CNC(=O)C[C@H]2C[C@H](C(=O)N(C(C)C)C(C)C)[C@@]3(C)c4[nH]c5cc(-c6ccco6)ccc5c4CCN3C2=O)cc1OC,0.72,i,-7.4,4.3,6,5,25,4.2,nt
N=c1oc2ccccc2cc1C(=O)N/N=C/c1ccccc1,nt,nt,nt,-2.2,-6,nt,nt,nt,-13
Cc1ccc(C(=O)Nc2ncccc2S(=O)(=O)c2ccccc2)cc1,0.7,i,5.3,-0.8,-4,9,10,-0.5,-3
CCc1cccc(C)c1NS(=O)(=O)c1cccs1,0.66,i,2.0,1.6,-3,-4,-32,-3.1,-1
CCOc1ccc(CCN2C(=S)N([C@@H](Cc3ccc(O)cc3)CN3CCC[C@@H]3CN3C(=S)NC[C@@H]3CC(C)C)C[C@@H]2Cc2ccc(O)cc2)cc1,nt,i,nt,-2.7,nt,10,17,10,nt
COc1ccc(OC)c(NC(=O)CN(C)S(=O)(=O)c2ccc3nc(C)sc3c2)c1,0.69,nt,5.3,3.9,5,nt,nt,nt,-14
Nc1ccc(N2CCOCC2)c(S(=O)(=O)Nc2cc(Cl)ccc2Cl)c1,0.67,i,3.6,6.8,5,-26*,-19*,5.9*,4
CCn1c(SCC(=O)Nc2ccc(C)cc2)nnc1-c1ccc(O)cc1,0.64,nt,4.8,2.2,12,nt,nt,nt,-13
Cc1cc(N2CCN(S(=O)(=O)c3ccccc3)CC2)nc2c(C)cccc12,0.68,i,-22,-0.8,6,9,2,-1.0,-5
N#Cc1ccc(NCC(=O)Nc2ccc(S(=O)(=O)N3CCCCC3)cc2)cc1,0.7,i,3.5,2.5,-6,3,6,4.5,nt
O=C(/C=C/c1ccc(Br)cc1)NCCCn1ccnc1,0.64,i,0.9,3.9,-2,-9,-9,-1.8,nt

# Looked up above:
# CCOc1cc(C)nc(Oc2ccc(=O)[nH]n2)n1 – Beta2AR agonist: 7
# CC(NC(=O)Nc1ccccc1)C(c1cccs1)N1CCN(c2ccccc2)CC1 (stereo not drawn) – HNF4A DNA FP: -0.9

# Next part
SMILES,Ecoli growth,FGF22 binding,UCH37 DUB inh,HNF4A DNA FP,Beta2AR agonist,rRNA inh HTS,rRNA inh HTS OD600,rRNA inh HTS RFP,ALR inh
COc1ccc(-n2nc(C(=O)NCC(=O)N3CCN(c4ccc(F)cc4)CC3)c3ccccc3c2=O)c(OC)c1,nt,i,nt,0.5,3,-4,-5,-0.3,-16
COc1ccccc1CNC(=O)CSCc1cnn(-c2ccccc2)c1-n1cccc1,0.73,nt,3.7,4.8,0,nt,nt,nt,-13
O=C(CC1C(=O)NCCN1Cc1c(F)cccc1Cl)NCCCn1ccnc1 (stereo not drawn),0.7,i,-1.7,-0.6,-6,14,6,-0.6,0
O=C(Nc1ccccc1F)Nc1ccccc1OC(F)F,0.64,i,-2.8,-0.2,0,nt,nt,nt,7
O=C(CC(c1ccccc1)c1ccccc1O)NCCc1ccccc1 (stereo not drawn),0.65,i,1.6,2.2,1,-31,-30,-8.4,11
CC(=O)NNC(=O)c1cc2sccc2s1,0.71,i,4.6,0.8,6,19,10,-1.2,nt
CCc1ccc(NC(=O)CSc2nnnn2-c2cccnc2)cc1,0.66,i,-1.6,3.2,-15,4,12,-0.8,-10
CC(C)(C)OC(=O)NCC12C=CC(O1)C1C(=O)N(Cc3ccccc3)C(=O)C12 (stereo not drawn),0.73,nt,2.8,-0.5,6,nt,nt,nt,1
CCN(Cc1ccncc1)Cc1nc(-c2ccc(C(=O)OC)cc2)no1,0.72,i,3.1,0.6,1,43,-26,-6.3,-8
O=C(Nc1ccc(S(=O)(=O)NCC2CCCO2)cc1)c1cccc(F)c1 (stereo not drawn),0.69,i,0.3,3.5,-1,-2,5,-3.0,-1
COc1ccc2ccc(=O)oc2c1CC(=O)C(C)C,0.66,i,-70,5.1,-21,nt,nt,nt,nt
CCOC(=O)c1sc(Nc2ccccc2)nc1C,0.75,nt,0.3,-1.0,-2,nt,nt,nt,13
CCc1noc(C)c1C(=O)Nc1cccc2ncccc12,0.68,i,0.7,4.5,0,15,16,2.5,-26
Cc1cccc(OCCCC(=O)Nc2ccccc2C(F)(F)F)c1,0.73,nt,0.0,0.4,1,7,-3,-4.3,-13
C[C@@H]1CN(Cc2nc(-c3cccs3)no2)C[C@H](C)O1,0.73,i,3.5,-2.0,2,15,6,-5.2,-3
Cc1cc(C)cc(OCCNC(=O)C(C)N2C(=O)c3ccccc3C2=O)c1 (stereo not drawn),0.67,i,3.2,-1.2,-4,-26,-22,-1.6,-2
CC(=O)N1CCCc2cc(S(=O)(=O)N(CC(C)C)CC(C)C)ccc21,0.77,nt,2.9,-0.2,-3,-3,-2,1.5,0
Cc1ccc(C(=O)N/C(=C\c2cccs2)C(=O)NCCCn2ccnc2)cc1C,nt,nt,1.9,0.3,-1,nt,nt,nt,-6
CC(=O)c1cccc(-c2ccnc3c2CC(C(=O)NCc2ccccc2)O3)c1 (stereo not drawn),nt,i,nt,-2.4,nt,-15,-20,0.5,nt
N#CCC(=O)N/N=C/c1cn(Cc2ccc(Cl)cc2Cl)c2ccccc12,nt,i,nt,-0.4,3,5,8,1.3,-11
COc1cc(C)c(S(=O)(=O)NOCc2ccc([N+](=O)[O-])cc2)c(C)c1C,0.61,i,2.8,-4.5,5,-4,2,1.9,-1
O=C(NCc1nnnn1-c1ccc(F)cc1)c1ccc2ccccc2c1,nt,i,nt,7.2,nt,-2,-14,1.4,nt
COc1cc(SC)ccc1C(=O)Nc1ccccc1,0.68,nt,5.1,-1.8,-1,nt,nt,nt,-2
C/C(=C/C(=O)O)C(=O)Nc1cccc(C(F)(F)F)c1,0.68,i,1.1,2.7,1,2,12,-2.6,-11

# Structures listed above shown as hits in HNF4A DNA FP:
Compound	FGF22 binding	UCH37 DUB inh	HNF4A DNA FP	Beta2AR agonist	rRNA inh HTS	rRNA inh HTS OD600	rRNA inh HTS RFP	ALR inh
CN1/C(=C\C(=S)NC(=O)c2ccccc2Cl)C(C)(C)c2ccccc21	i	5.2	68*	-31	-41	-68	37	6

# Next part
SMILES,Ecoli growth,FGF22 binding,UCH37 DUB inh,HNF4A DNA FP,Beta2AR agonist,rRNA inh HTS,rRNA inh HTS OD600,rRNA inh HTS RFP,ALR inh
Cc1cc(Nc2ccccc2)n(-c2ccc(Br)cc2)n1,0.73,nt,-1.4,-0.8,-15,nt,nt,nt,62
COc1ccc(CNC(=O)C2CC(c3ccc(F)cc3)=NO2)cc1 (stereo not drawn),0.73,nt,8.8,1.0,-13,nt,nt,nt,1
Cn1c(=O)c2c(nc(Oc3ccc(-c4ccccc4)cc3)n2C)n(C)c1=O,0.73,nt,-1.3,-2.9,2,2,-6,-1.2,-4
O=C(CCNS(=O)(=O)c1ccc(Br)cc1)NCc1ccc(Cl)cc1,0.7,i,6.1,-0.3,-9,-5,8,-2.3,nt
O=C(CSc1nc(-c2ccc(Cl)cc2)cs1)Nc1cccc([N+](=O)[O-])c1,0.7,i,6.8,1.1,-4,-17,-13,-1.5,2
Cc1ccc(C)c(NC(=S)N2CCN(c3ccccn3)CC2)c1,0.69,i,5.9,-1.0,-8,0,2,-3.5,-1
COC(=O)c1cccc(NC(=O)CCc2ccccc2)c1,0.7,i,-1.4,0.1,4,3,3,2.6,-2
Cc1c(NS(=O)(=O)c2ccc(S(=O)(=O)c3ccccc3)s2)c(=O)n(-c2ccccc2)n1C,0.69,nt,2.5,-0.9,0,7,-4,-1.2,9
C[C@H](NC(N)=O)C(=O)OCC(=O)Nc1ccc(OC(F)F)cc1,0.6,i,-1.5,-1.1,-1,14,9,5.6,-3
Cc1ccc(NC(=O)c2ncn(CCCNCCCc3ccccc3)n2)cc1C,nt,i,nt,2.1,42*,-51,-80,-18,nt
COc1ccc(-c2sc3ccc(OC)cc3c2C#Cc2ccccn2)cc1,nt,i,nt,-3.7,12,19,8,25,0
COc1cccc(/C=N/N2CCN(C3c4ccccc4-c4ccccc43)CC2)c1O,nt,i,nt,5.2,1,1,-13,2.6,-1
